# Sa growth inh = S. aureus growth inhibition; relative growth, % (test concentration not listed); AID 720641; S. aureus RN4220 growth, OD600, 20 h, 42 °C; stronger effect = lower value; 170,000 compounds, 0.53% hits;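 active = growth at 42 °C up to 50% and 20 or more points under that at 30 °C, or under 10% at both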;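 also: 300 nL library stock went into each well; scaled to the means of positive and negative controls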
# GIV-Gai inh = blocks GIV peptide binding to rat Galpha-i3. AID 1224905. percent of control (FP), % (no concentration beside the values). Galpha-i3/FITC-GIV peptide fluorescence polarization, 90 min; stronger effect = lower value; scaled: aluminum fluoride 0%, vehicle 100%. P08753. 210,000 compounds, 0.42% hits;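 active = replicate mean at 85% of control or lower, very high polarization wells dropped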;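 also: wells of about 15 µL received 100 nL stock; the first replicate is given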
# Target sequence (P08753 whole entry, looked up): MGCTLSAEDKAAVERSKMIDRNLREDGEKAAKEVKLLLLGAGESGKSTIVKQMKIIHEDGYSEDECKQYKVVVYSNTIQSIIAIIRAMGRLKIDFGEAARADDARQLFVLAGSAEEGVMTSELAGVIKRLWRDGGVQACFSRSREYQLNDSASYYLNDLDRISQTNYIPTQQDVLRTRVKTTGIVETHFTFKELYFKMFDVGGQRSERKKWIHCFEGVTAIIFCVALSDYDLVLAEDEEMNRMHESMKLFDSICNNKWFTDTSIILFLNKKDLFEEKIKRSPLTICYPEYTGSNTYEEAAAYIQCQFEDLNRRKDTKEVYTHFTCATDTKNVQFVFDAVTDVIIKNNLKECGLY
# HCMV UL50-53 inh = cytomegalovirus nuclear egress complex inhibition; inhibition, % (no concentration beside the values); AID 1918969; HTRF UL50-UL53 interaction, normalized percent inhibition; 190,000 compounds, 0.15% hits;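 active = both replicates at 50% or more, plus weaker picks with an unusually low signal ratio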;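 also: stock transfer was 100 nL into about 20 µL; 0% = negative control wells and 100% = wells with untagged competitor protein; inactives centre near -12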
# Sa growth inh second temp = further read-out of Sa growth inh, marked with its call; relative growth, %; measured here: growth at 30 °C;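 optical density after 20 h as mean of two plates; 100% = untreated growth and lower means inhibition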
# Starred values were filed as active, the others as inactive; . = no result given; & = joins results of further samples.
SMILES,Sa growth inh,Sa growth inh second temp,GIV-Gai inh,HCMV UL50-53 inh
COc1cccc(-n2c(=O)c3c4c(sc3n(CC(=O)NC3CCCC3)c2=O)CCCC4)c1,125,93,105,-1
COC(=O)CCCCC1=C(NC(C)=O)C(NC(=O)c2ccccc2)CS1 (stereo not drawn),92,96,.,-1
Cc1cccc(CSc2ccc(-c3ccco3)nn2)c1,62,47,106,-15
Cc1ccc(NC(=O)CSc2nc3ncccc3[nH]2)cc1F,94,94,106,.
O=C(c1ccccc1)c1cc(Cl)ccc1N=Cc1cccs1,90,92,.,-31
CN(C)[C@@H]1C(=O)C(C(=O)NCN2CCCC2)=C(O)[C@@]2(O)C(=O)C3=C(O)c4c(O)cccc4[C@@](C)(O)C3CC12 (stereo partly drawn),86,65,.,-47
COc1ccc(-n2nc(C)cc2N)cc1,94,92,106,-6
Cc1cc(=O)[nH]c(N/N=C/C2CC=CCC2)n1 (stereo not drawn),113,95,.,-27
O/N=C/c1cc[n+](C/C=C\c2ccccc2)cc1,89,78,107,.
CCCNC(=O)C1CCC(Cn2c(=O)c3sccc3n(Cc3cccc(OC)c3)c2=O)CC1 (stereo not drawn),102,94,101,.
O=C(O)c1cccc(-c2ccc(/C=C3/SC(=O)N(c4ccccc4)C3=O)o2)c1,87,83,.,-58
CC1(C)OCC(COC(=O)/C=C/c2ccc(F)cc2)O1 (stereo not drawn),76,83,.,-64
CCCC(C(=O)Nc1cccc(F)c1)N1Cc2ccccc2C1=O (stereo not drawn),.,.,106,-5
CN(C)c1cc(-c2ccccc2)nc(N)n1,99,78,101,-9
O=c1c2ccccc2[nH]c(=S)n1CCN1CCCCC1,92,89,96&105,-18
Cc1nc(-n2[nH]c(C)c(Cc3ccccc3)c2=O)sc1C(=O)NC(C)C,.,.,103,8
O=c1c(C=NCc2ccccn2)c(CSc2ccc(Cl)cc2)[nH]n1-c1nc2ccccc2s1,.,.,106,-3
Cc1oc2ncn(CC(C)C)c(=O)c2c1C(=O)Nc1cccc(C(F)(F)F)c1,95,90,100,.
CC(=O)Nc1ccc(SCc2nc3ccccc3c(=O)n2CC#N)cc1,102,97,.,5
COc1cccc(CC(=O)N(Cc2ccccc2)Cc2ccco2)c1,96,92,.,-13
S=c1[nH]nc(-c2ccccc2Cl)o1,87,81,95,-10
COc1ccc(CN2CCC(N3CCN(CCO)CC3)CC2)cc1OC,99,85,102,-14
Nc1nc(SCC(=O)Nc2cccc(C(F)(F)F)c2)n[nH]1,97,89,99,-3
O/N=C1\CC(c2ccccc2)OC12CCCCC2 (stereo not drawn),124,109,102,2
Cc1cccc(-c2noc(CN(C(=O)c3ccccc3Cl)C(C)C)n2)c1,104,86,105,-18
CCn1c2ccccc2c2nnc(SCCN3CCCCC3)nc21,85,85,94,-93
Cc1ccc(-n2cc[nH]c(=O)c2=O)cc1Cl,.,.,98,-42
Cc1ccc(-c2noc(CCC(=O)Nc3ccc(CCc4nc5ccc(C)cc5[nH]4)cc3)n2)cc1,.,.,108,-33
Cc1ccc(CN(C)CC(=O)NC(C)c2ccccc2)cc1 (stereo not drawn),103,91,.,-3
CC(C)c1ccc(-c2nnn(CC(N)=O)n2)cc1,97,79,102,-8
CCn1cnc2ccccc21,84,85,.,-23
Cc1cc(C)c2c(n1)SCCN2C(=O)NCC(=O)NC1CCCC1,.,.,108,-7
CCCCN(C)c1ncnc2onc(-c3ccc(Cl)cc3)c12,90,84,103,-27
CCOc1ccc(NC(=O)CN2CCCN(Cc3cc(C)ccc3C)S2(=O)=O)cc1,90,90,99&105,-3&4
O=C(Cn1ncc2c(=O)oc3ccccc3c21)NCC1COc2ccccc2O1 (stereo not drawn),98,60,102,.
C=CCNC(=O)c1ccc(N2C(=O)c3ccccc3C2=O)cc1,79,100,96,-2
Nc1c(-c2ccccc2)cnn1C1CCS(=O)(=O)C1 (stereo not drawn),.,.,105,8
COc1cc(/C=c2\sc3nc4ccccc4n3c2=O)ccc1OCc1c(F)cccc1Cl,.,.,111,0
OCc1ccccc1NC(=S)NCc1ccccc1,89,95,.,2
CN(C(=O)c1cccnc1Cl)C1CCS(=O)(=O)C1 (stereo not drawn),115,88,.,-20
CCOC(=O)c1c(-c2ccccc2)csc1/N=C/c1c(C)[nH]n(-c2ccc(C)cc2)c1=O,.,.,108,-9
O=C(Nc1ccccc1)c1ccc(-c2nc3ccccc3s2)s1,99,96,.,-56
CN(C)c1ccc(C=Nc2ccc(C(=O)O)c(O)c2)cc1,82,78,106,-13
Cc1cccc(N2CCC(N=CN(CCO)CCO)=N2)c1,79,96,.,-16
O=C(CSCc1cnn(-c2ccccc2)c1-n1cccc1)NCc1ccc(Cl)cc1,90,80,97,-9
COC1(OC)N=C(N)C2(C#N)C(c3ccccc3)C12C#N (stereo not drawn),95,84,101,-26
O=C(NCCc1ccc(Cl)cc1)C1CCC(CNc2c(N3CCCC3)c(=O)c2=O)CC1 (stereo not drawn),.,.,108,14
COc1ccc(CC2=C(C)C(=O)N(c3ccc(OC)cc3)C2=O)cc1,126,78,107,-42
CCOC(=O)C1SC(c2ccccc2)C(C#N)C1(O)c1ccccc1 (stereo not drawn),121,75,112,-5
CC1Cc2ccccc2N1S(=O)(=O)c1cccc(C(=O)NCCCn2ccnc2)c1 (stereo not drawn),110,88,.,-5
COc1ccc(CCn2nnnc2C2(c3ccc(C)cc3)CC2)cc1,.,.,106,-10
N#C/C(=C\c1cccc(Cl)c1)c1nc(-c2cc3cc(Br)ccc3oc2=O)cs1,.,.,111,-8
O=C(NCCCN1CCOCC1)c1cccc(S(=O)(=O)N2CCCC2)c1,96,93,.,-3
Cc1c(C(=O)Nc2ccccc2Cl)oc2ccc(S(=O)(=O)N3CCOCC3)cc12,102,82,106,-29
O=c1[nH]ncc(Nc2ccc(F)cc2)c1Cl,96,78,.,-26
CCn1cc(NC(=O)Nc2ccccc2C(=O)OC)c(C(N)=O)n1,100,93,99,-11
O=C(NCc1ccccc1)C1CCCN1S(=O)(=O)c1ccc(Cl)cc1 (stereo not drawn),101,99,96,-6
Cc1cc2nc3s/c(=C/c4cccn4-c4ccc([N+](=O)[O-])cc4)c(=O)n3c2cc1C,.,.,106,-15
CCC(=O)Nc1ccc(C)cc1-c1nnc(SC(C)C(=O)Nc2ccc(C)cc2C)[nH]c1=O (stereo not drawn),.,.,102,-14
Cc1ccccc1Nc1c(-c2c[nH]c3ccccc23)nc2ccccn12,102,93,102,-5

# The results go on.
SMILES,Sa growth inh,Sa growth inh second temp,GIV-Gai inh,HCMV UL50-53 inh
COc1ccc(C)cc1-n1c(C)nc2cc(C(=O)NCC(OC)OC)ccc21,104,94,104,-9
COc1ccc(-c2noc(Cn3ccn4nc(-c5ccc(C)cc5)cc4c3=O)n2)cc1OC,.,.,108,-21
Cn1c(=O)c2sccc2n2c(SCc3ccc(F)cc3Cl)nnc12,.,.,98,-18
CCOC(=O)c1cc(-c2ccc(C)cc2)n(CCCC(=O)Nc2cccc(CC)c2)c1,105,86,100,.
Cc1cccc(CNC(=O)c2ccc3c(c2)N(C)CCS3)c1,105,103,95,0
Cn1c(Cn2c(=O)sc3ccccc32)nnc1SCC(=O)NCc1ccccc1Cl,100,87,100,.
S=c1nc[nH]c2c1sc1ncccc12,92,78,111,-107
O=C(Cn1ccn2nc(-c3ccccc3)cc2c1=O)NC1CCCC1,.,.,103,4
COc1ccc(-c2nnc(C3CCN(S(=O)(=O)c4cc(Br)cc5c4N(C(C)=O)CC5)CC3)o2)cc1,91,100,103,12
Cn1c(SC2CCCCC2=O)nnc1-c1ccncc1 (stereo not drawn),83,82,.,-28
O=C(NCCCN1CCCC1=O)c1ccc(CN2C(=O)CCn3nc(-c4ccccc4)cc32)cc1,.,.,102,-9
CCCCN(CC)C(=O)c1sc2nc(C)nc(N3CCN(c4ccccn4)CC3)c2c1C,.,.,102,-13
CC(C)NC(=O)c1ccc2cn[nH]c2c1,.,.,104,-26
Cc1cc(C(=O)OCC(=O)N(C)Cc2ccccc2)c(C)o1,104,84,.,-31
O=C(Nc1cccc(-n2cnnn2)c1)c1ccccc1,75,100,94,-6
O=S(=O)(c1ccc(Br)cc1)c1nnn2c1nc(NCc1cccs1)c1sccc12,117,87,98,.
CCOC(=O)c1cc(-c2ccco2)nc2c1c(C)nn2-c1ccccc1,98,94,.,-35
CCc1ccc(-c2cc(C)no2)cc1S(=O)(=O)N(C)C1CCCCC1,89,95,107,8
CCOC(=O)c1sc(=N)n(-c2ccc(OC)cc2)c1C,96,93,100,1
Cc1ccc(NC(=O)C2CCCN(S(=O)(=O)c3ccc4[nH]c(=O)ccc4c3)C2)cc1C (stereo not drawn),140,89,113,.
O=c1c2cccnc2n(Cc2cccc(F)c2)c(=O)n1Cc1ccc(F)cc1,100,96,105&99,-3&-10
Cc1oc2ncnc(N3CCC(C(=O)NCc4ccccc4)CC3)c2c1C,.,.,100,-20
COC(=O)c1cc(OC)c(OC)cc1NC(=O)Cc1ccc(OCc2c(C)noc2C)cc1,84,99,.,5
Cc1ccc(-c2n[nH]c3c2cnc2ccc(F)cc23)cc1,.,.,98,-16
CC1=C(C(=O)Nc2ccc(C)cc2)C(c2ccc(Br)cc2)n2ncnc2N1 (stereo not drawn),.,.,106,-18
CCC(C)NC(=O)c1cc2c(Cl)ccc3c2n1CCO3 (stereo not drawn),.,.,105,4
CC(C)(C)C(=O)N1CCN(c2nc3ncccc3o2)CC1,.,.,102,-5
CCN1CCN(CCCNC(=O)c2cnn(-c3ccc(OC)cc3)c2C2CCN(C(=O)OC(C)(C)C)CC2)CC1,110,87,103,.
Cc1ccc(-c2nn3c(=O)cc(CNC(=O)Nc4cc(C)ccc4C)nc3s2)cc1,.,.,102,-21
CNC(=O)Cn1c(=O)c(C)nc2cc(C)c(C)cc21,.,.,113,-18
CCOC(=O)C1CCN(S(=O)(=O)c2csc(C(N)=O)c2)CC1,111,92,106,.
CCCN1CCN(CCCNc2nn3nnnc3c3ccccc23)CC1,.,.,103,5
CCCC(C(=O)NC1CCCC1)N(C(=O)Cn1nnc(-c2ccc(C)o2)n1)c1ccccc1 (stereo not drawn),88,85,101,-36
CN(c1ccc(C(=O)Cn2nc(C(=O)O)c3ccccc3c2=O)cc1)S(C)(=O)=O,69,84,.,-23
CCOC(=O)c1c(SC)[nH]c2ccc(Cl)cc2c1=O,92,91,101,0
Cc1cc(-c2ccccc2)nc(SC(C)C(=O)N(C)C)n1 (stereo not drawn),92,79,.,-30
COc1ccc(C)cc1-n1c(-c2ccc(Cl)cc2)cc2c1CC(C)(C)CC2=O,93,88,93,-27
COc1cc(C=Nc2ccc(Br)c(Cl)c2)ccc1O,106,96,.,-12
CCCCn1c(=O)c2oc3ccccc3c2n(Cc2ccc(OC)cc2)c1=O,95,95,106,.

# Some of the entries so far, as labelled records.
CCCCN(CC)C(=O)c1sc2nc(C)nc(N3CCN(c4ccccn4)CC3)c2c1C
  Sa growth inh: .	Sa growth inh second temp: .	GIV-Gai inh: 102	HCMV UL50-53 inh: -13

CCCC(C(=O)NC1CCCC1)N(C(=O)Cn1nnc(-c2ccc(C)o2)n1)c1ccccc1 (stereo not drawn)
  Sa growth inh: 88	Sa growth inh second temp: 85	GIV-Gai inh: 101	HCMV UL50-53 inh: -36

N#C/C(=C\c1cccc(Cl)c1)c1nc(-c2cc3cc(Br)ccc3oc2=O)cs1
  Sa growth inh: .	Sa growth inh second temp: .	GIV-Gai inh: 111	HCMV UL50-53 inh: -8

# Among those listed so far, these have an aryl thioether with sulfur outside any ring.
SMILES,Sa growth inh,Sa growth inh second temp,GIV-Gai inh,HCMV UL50-53 inh
Cc1cccc(CSc2ccc(-c3ccco3)nn2)c1,62,47,106,-15
Cc1ccc(NC(=O)CSc2nc3ncccc3[nH]2)cc1F,94,94,106,.
O=c1c(C=NCc2ccccn2)c(CSc2ccc(Cl)cc2)[nH]n1-c1nc2ccccc2s1,.,.,106,-3
CC(=O)Nc1ccc(SCc2nc3ccccc3c(=O)n2CC#N)cc1,102,97,.,5
Nc1nc(SCC(=O)Nc2cccc(C(F)(F)F)c2)n[nH]1,97,89,99,-3
CCn1c2ccccc2c2nnc(SCCN3CCCCC3)nc21,85,85,94,-93
CCC(=O)Nc1ccc(C)cc1-c1nnc(SC(C)C(=O)Nc2ccc(C)cc2C)[nH]c1=O (stereo not drawn),.,.,102,-14
Cn1c(=O)c2sccc2n2c(SCc3ccc(F)cc3Cl)nnc12,.,.,98,-18
Cn1c(Cn2c(=O)sc3ccccc32)nnc1SCC(=O)NCc1ccccc1Cl,100,87,100,.
Cn1c(SC2CCCCC2=O)nnc1-c1ccncc1 (stereo not drawn),83,82,.,-28
CCOC(=O)c1c(SC)[nH]c2ccc(Cl)cc2c1=O,92,91,101,0
Cc1cc(-c2ccccc2)nc(SC(C)C(=O)N(C)C)n1 (stereo not drawn),92,79,.,-30

# Outcome played no part in choosing rows. About 0.82% of those tested had a hit in this group.
